Screens deposited in PubChem BioAssay by several laboratories.
E coli growth – inhibitors of Escherichia coli growth. OD600, 23 h; hits give low values. OD600 absorbance (no concentration beside the values). actives 0.21% (n = 330,000);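 active = OD600 absorbance below the run mean of sample wells minus 3.6 SD, in any replicate, cut at about 0.56 in these data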;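 also: stock transfer was 300 nL into about 60 µL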
ALR H2O2 inh – human ALR oxidase inhibition via reduced H2O2; P55789; purified ALR, DTT oxidation, H2O2 HRP-luminol luminescence; inhibition, % (no concentration beside the values); actives 3.8% (n = 290,000);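 active = mean and each replicate at 75% or more; inconclusive = only one of the two met; inactive = neither met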;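 also: stock transfer was 7.5 nL into about 7.5 µL; 0% = neutral wells and 100% = wells with inactivated enzyme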
UCH37 inh – human UCH37 deubiquitinating enzyme inhibition | AID 588478 | Q9Y5K5 | purified proteasome/UCH37, Ub-AMC cleavage fluorescence | inhibition, % (no concentration beside the values) | actives 0.33% (n = 330,000);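 active = mean of two replicates above 20%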;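 also: 0% = compound-free wells with enzyme and 100% = wells lacking proteasome; stock transfer was 100 nL into about 20 µL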
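Assay system: Proteasome-bound UCH37. Buffer or medium: pH 7.4 Tris-HCl (50 mM) with ovalbumin, ATP-MgCl2, DTT. Incubation: 30 min preincubation with enzyme, 25 min cleavage at room temperature. Measured by: fluorescence, ex 355 nm, em 460 nm. Read-out basis: percent inhibition. Control set: wells without proteasome as full block, compound-free enzyme plus substrate as uninhibited.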
LANA-H2B inh – blocks KSHV LANA binding to histone H2A/H2B; cell-free LANA-H2A/H2B peptide, fluorescence polarization; actives 0.6% (n = 320,000); inhibition, % (no concentration beside the values); AID 2629; Q9QR71; in the data active = inhibition mostly above about 10%, no sharp cut-off; inactive = mostly below about 6.7%;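 also: stock transfer was 7.5 nL into about 10 µL; 0% = median of vehicle wells and 100% = median of positive control wells; one replicate is shown; the record names a cut of 25% in any replicate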
FGF22 binding – shifts melting point of recombinant human FGF22; recombinant FGF22 thermal shift, SYPRO orange fluorescence; percent of sucrose octasulfate shift, DMSO zero; AID 651658; Q9HCT0; actives 1.5% (n = 340,000); calls only at 9.99 µM;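 active = melting point raised past a set limit in the mean and every replicate; inconclusive = no clear call; three in four hits are not shown here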
Target sequence (Q9HCT0 whole entry, looked up): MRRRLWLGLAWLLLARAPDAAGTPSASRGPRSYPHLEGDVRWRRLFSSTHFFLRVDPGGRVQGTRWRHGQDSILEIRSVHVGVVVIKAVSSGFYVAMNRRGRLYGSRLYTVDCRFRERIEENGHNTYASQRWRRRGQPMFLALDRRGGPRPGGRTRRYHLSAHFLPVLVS
Beta2AR agonist – agonists of human beta-2 adrenergic receptor inducing internalization; P07550; Am2.2-beta2AR cells, FAP receptor internalization, flow cytometry; reference of the scale not given here; response, % (no concentration beside the values); actives 0.43% (n = 340,000); AID 504454;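 active = response above a set limit, near 3 SD of response in nonfluorescent compounds, cut at about 42% in these data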;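 also: stock transfer was 100 nL into about 11 µL; a reference agonist was the positive control; negative values mostly stem from fluorescent compounds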
Target sequence (P07550 whole entry, looked up): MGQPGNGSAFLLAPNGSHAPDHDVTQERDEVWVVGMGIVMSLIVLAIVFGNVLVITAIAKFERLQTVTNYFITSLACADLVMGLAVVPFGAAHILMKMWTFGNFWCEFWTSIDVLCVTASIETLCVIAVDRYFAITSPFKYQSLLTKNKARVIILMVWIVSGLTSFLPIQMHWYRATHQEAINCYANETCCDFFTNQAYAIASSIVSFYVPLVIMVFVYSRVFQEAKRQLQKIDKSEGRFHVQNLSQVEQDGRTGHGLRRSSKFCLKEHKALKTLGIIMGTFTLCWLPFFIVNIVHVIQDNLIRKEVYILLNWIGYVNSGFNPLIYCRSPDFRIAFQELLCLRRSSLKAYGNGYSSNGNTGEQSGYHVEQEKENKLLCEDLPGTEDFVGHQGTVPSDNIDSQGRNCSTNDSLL
HNF4A DNA FP – change in binding of human HNF4 alpha to DNA | P41235 | HNF4a-FITC DNA binding, fluorescence polarization, 1 h | activity change, % at 10 µM | actives 0.3% (n = 360,000) | AID 1224865; in the data active = activity change above about 30%, passing the limit was not always enough;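 also: controls were the assay level and a saturating level of protein; the project sought stronger binding though the title names inhibitors; some compounds called inactive have numbers as strong as hits; positive values seem to mean higher polarization but the record does not say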
Target sequence (P41235 whole entry, looked up): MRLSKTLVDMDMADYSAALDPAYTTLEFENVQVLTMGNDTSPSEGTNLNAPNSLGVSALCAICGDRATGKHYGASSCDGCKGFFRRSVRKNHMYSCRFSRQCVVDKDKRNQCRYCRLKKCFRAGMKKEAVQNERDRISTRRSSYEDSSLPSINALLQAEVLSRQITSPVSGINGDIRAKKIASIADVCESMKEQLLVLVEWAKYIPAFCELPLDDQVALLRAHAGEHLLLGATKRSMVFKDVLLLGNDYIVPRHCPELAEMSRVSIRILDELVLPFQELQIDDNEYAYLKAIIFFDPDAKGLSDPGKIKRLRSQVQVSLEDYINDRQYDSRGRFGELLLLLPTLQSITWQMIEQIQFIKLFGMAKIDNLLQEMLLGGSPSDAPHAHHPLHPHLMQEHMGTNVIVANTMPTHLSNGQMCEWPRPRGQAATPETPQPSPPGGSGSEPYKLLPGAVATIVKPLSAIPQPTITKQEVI
* hit, by the source's call; i = inactive; ? = inconclusive; / = not tested or not shown; + = active, no number. The list is partial; count on the stated rates, not on these rows.

SMILES	E coli growth	ALR H2O2 inh	UCH37 inh	LANA-H2B inh	FGF22 binding	Beta2AR agonist	HNF4A DNA FP
C=C(C)C(=O)N1CC2(CC(c3cccc(NC(=O)/C(C)=C\C)c3)=NO2)C[C@H]1C(N)=O (stereo partly specified)	/	-6	4.0	2.0	i	2	-1.9
Oc1ccc(C[C@@H]2CNCCN2CC2CCCCC2)cc1	/	17	4.7	0.6	i	7	0.5
CN(C(=S)NC(=O)c1ccc(Cl)cc1)C1CCCCC1	0.7	12	-0.9	-1.9	i	-6	0.1
CN(Cc1ccccc1)c1nc2c(c(=O)[nH]c(=O)n2C)n1Cc1ccccc1F	0.66	-2	3.7	-0.6	i	-1	2.8
O=S(=O)(NCC1NCCc2ccccc21)c1ccccc1 (stereo unspecified)	0.67	4	0.9	-3.2	i	-2	2.6
CN(C)S(=O)(=O)n1cc(/C=C(\NC(=O)c2ccccc2)C(=O)NCCCN2CCOCC2)c2ccccc21	0.61	1	6.4	-12	i	-3	0.1
COc1ccc(S(=O)(=O)NCC(c2ccc(F)cc2)N2CCN(C)CC2)cc1 (stereo unspecified)	0.65	/	4.0	0.4	i	-5	0.9
NC(=O)CC(O)c1cccc(Cl)c1 (stereo unspecified)	0.73	0	2.4	-0.3	/	-7	3.5
COc1ccc(/C=C/C(=O)NCCc2nc3ccccc3[nH]2)cc1	0.62	-3	3.2	-0.1	i	-3	-1.1
COc1ccc(CCNC(=O)CSc2nnc(CNC(=O)c3c(F)cccc3Cl)o2)cc1OC	0.64	-35	4.3	0.8	i	-10	-2.8
CCc1cccc(NC(=O)c2ccc(NS(=O)(=O)c3c(C)noc3C)cc2)c1	0.71	5	2.5	3.7	/	5	2.0
COCCN1C=C(C(=O)OC)C(c2ccc(Cl)cc2)C(C(=O)OC)=C1	0.69	-21	-187	-3.7	i	-1	3.2
COc1ccccc1-c1nc(C#N)c(N2CCN(C(=O)c3ccco3)CC2)o1	0.74	-12	-81	-0.7	i	-7	0.4
CC1CCN(C(=O)/C(=C\c2ccco2)NC(=O)c2ccccc2)CC1	0.7	19	2.9	0.3	i	-8	1.9
CCOc1ccc(NC(=O)CN(C)C(=O)c2ccccc2OCc2c(C)noc2C)cc1OCC	0.67	-2	-1.7	-3.8	i	5	5.5
O=C(C1CCN(S(=O)(=O)N2CCOCC2)CC1)N1CCN(c2ccccc2)CC1	0.7	42	-2.7	1.8	/	0	-0.5
NC(=O)c1nsc(C(=O)N(Cc2ccc(F)cc2)C(C(=O)NCC2CCCO2)c2ccc(O)cc2)c1N (stereo unspecified)	0.7	/	-68	/	i	-4	1.0
O=C1C=CC(=Nc2ccc(F)cc2)O1	0.67	/	3.2	/	i	7	0.9
CCN1C(=O)C(C(=O)NC(C)c2ccccc2)C2CC1(C)Oc1ccccc12 (stereo unspecified)	0.7	/	1.6	2.7	/	8	-1.6
Cc1c(N=NC2=C(O)CC(C)(C)CC2=O)c(=O)n(-c2ccccc2)n1C	0.72	11	17	5.3	i	7	6.6
CCCC(=O)NC(C)C(c1cccs1)N1CCN(C)CC1 (stereo unspecified)	0.66	0	4.5	-2.5	i	2	-2.4
O=C1c2ccncc2C(=O)N1c1cccc(Cl)c1	0.7	1	4.6	8.2	i	-2	0.8
CC(C)c1ccc(/C=C2\SC(=S)N(CC(=O)NCCCN3CCOCC3)C2=O)cc1	0.66	/	2.5	-3.3	i	22	-1.2
O=[N+]([O-])c1ncccc1OCc1ccc(Br)cc1F	0.67	-9	3.2	-0.9	i	-1	3.4
CCOC(=O)c1ccccc1NC(=O)C1CC(=O)N(C(C)(C)C)C1 (stereo unspecified)	0.67	-2	0.0	5.2	i	3	-2.2

The final six compounds of the part before lead into the next:
SMILES	E coli growth	ALR H2O2 inh	UCH37 inh	LANA-H2B inh	FGF22 binding	Beta2AR agonist	HNF4A DNA FP
Cc1c(N=NC2=C(O)CC(C)(C)CC2=O)c(=O)n(-c2ccccc2)n1C	0.72	11	17	5.3	i	7	6.6
CCCC(=O)NC(C)C(c1cccs1)N1CCN(C)CC1 (stereo unspecified)	0.66	0	4.5	-2.5	i	2	-2.4
O=C1c2ccncc2C(=O)N1c1cccc(Cl)c1	0.7	1	4.6	8.2	i	-2	0.8
CC(C)c1ccc(/C=C2\SC(=S)N(CC(=O)NCCCN3CCOCC3)C2=O)cc1	0.66	/	2.5	-3.3	i	22	-1.2
O=[N+]([O-])c1ncccc1OCc1ccc(Br)cc1F	0.67	-9	3.2	-0.9	i	-1	3.4
CCOC(=O)c1ccccc1NC(=O)C1CC(=O)N(C(C)(C)C)C1 (stereo unspecified)	0.67	-2	0.0	5.2	i	3	-2.2
COc1ccc(CC(=O)Nc2cccc(S(=O)(=O)N3CCCCC3)c2)cc1	0.7	/	4.6	/	i	-3	-1.0
CC(C)OCCCNC(=O)CN1C(=O)/C(=C/c2ccccc2)Sc2ccccc21	0.71	0	-12	3.8	i	-19	3.9
NC(=O)c1cc(S(=O)(=O)NCCc2ccc(Cl)cc2)cs1	0.69	-2	-1.3	0.0	i	4	-1.7
CCOC(=O)c1snc(C(=O)NC2CCCCC2)c1N	0.66	16	-58	2.3	i	2	1.6
CC(C)(C)C(=O)NC(=S)NNC(=O)c1ccncc1	0.71	/	5.0	-1.7	/	1	1.4
O=C(CSc1ccccn1)N/N=C/c1cc([N+](=O)[O-])ccc1O	/	2	/	-9.6	i	-2	-1.7
O=C(CSc1nnc(COc2ccccc2)n1-c1ccccc1)c1cccs1	0.7	28	1.3	-1.7	/	-21	2.7
CCC(C)N(C(=O)CSc1nnc(C)n1C)C1CCS(=O)(=O)C1 (stereo unspecified)	0.63	0	1.5	1.8	i	-11	0.2
CCC(=O)NCCc1nc2cc(NC(=O)c3cccs3)ccc2n1C	0.68	-5	5.1	2.0	i	-7	0.2
Cc1ccc(C)c(NC(=O)CCN2C(=O)c3ccccc3C2=O)c1	0.67	-14	1.0	-3.9	i	0	0.0
O=C(O)C1(c2ccccc2)CCC(Nc2ccccc2)C1 (stereo unspecified)	0.68	/	1.2	-1.9	i	1	2.6
CC(=O)Nc1ccc(NC(=O)C(C)OC(=O)CNC(=O)c2sc3ccccc3c2Cl)cc1 (stereo unspecified)	0.7	-6	5.8	3.2	/	14	-1.5
O=C(Nc1ccncc1)c1ccc(Br)cc1	0.65	0	1.4	0.8	i	1	1.4
COc1ccc(Cl)cc1NC(=O)CN(C)C(=O)CCCc1c[nH]c2ccccc12	0.69	-6	2.9	-1.7	i	3	-3.4
COc1ccc(C)cc1NC(=O)C1CCN(C(=O)c2ccc(C(C)(C)C)cc2)CC1	0.69	-1	1.2	4.8	i	23	1.5
CCCCCCS(=O)[C@H]1CS(=O)(=O)C[C@@H]1S(=O)CCCCCC (stereo partly specified)	0.77	4	-5.2	-1.3	/	6	-0.6
O=C(Cc1ccc(F)cc1)Nc1ccccc1Sc1ccccc1	0.7	38	-22	1.9	i	12	0.7
COc1ccc(CN(C)CC(=O)N(C)CC(=O)Nc2ccccc2Br)cc1F	0.71	-3	-0.4	2.1	i	-3	-0.4
CCSc1nnc(NC(=O)c2cc(C)on2)s1	0.63	-2	6.4	4.1	/	7	0.6
CC(=O)Nc1ccc(N(C(=O)c2ccccn2)C(C(=O)NC2CCCCC2)c2ccc(F)cc2)cc1 (stereo unspecified)	0.66	-1	1.4	0.2	i	-4	0.1
Cc1nnc(SCC(=O)NC2CCCC(C)C2C)n1N (stereo unspecified)	0.7	-1	1.9	1.3	i	0	1.0
Cc1ccc(C(=O)Nc2ccc3nc(C)sc3c2)s1	0.75	0	1.2	1.3	/	-2	-1.2
O=C(c1ccc(Cl)nc1)N1CCN(S(=O)(=O)c2ccc3c(c2)OCCO3)CC1	0.69	1	-0.2	8.9	i	-6	-2.8
CC(C)CCN1CCN(C2CSCCSC2)CC1CCO (stereo unspecified)	0.63	-5	5.0	6.3	i	-11	-2.6
CCOc1ccccc1NC(=O)N1CCCC(c2nc3c(nnn3Cc3ccc(C)cc3)c(=O)[nH]2)C1 (stereo unspecified)	0.69	/	5.5	/	/	2	2.8

Next part.
SMILES	E coli growth	ALR H2O2 inh	UCH37 inh	LANA-H2B inh	FGF22 binding	Beta2AR agonist	HNF4A DNA FP
Cc1cc(C)c(C#N)c(SCc2nc3ccccc3c(=O)[nH]2)n1	0.64	5	-5.1	5.0	i	-18	1.5
O=C(CN1CCN(CC(=O)Nc2ccc3c(c2)OC2(CCCCC2)O3)CC1)Nc1cccc(F)c1	0.64	/	-0.4	/	i	9	-1.8
CCOC(=O)C1CCCN(c2c(NCCCN(CC)c3ccccc3)c(=O)c2=O)C1 (stereo unspecified)	0.71	98*	-0.1	17*	/	14	3.9
CCc1[nH]nc(C(=O)NC2CCCN(Cc3ccccc3F)C2)c1C (stereo unspecified)	0.68	2	0.9	-1.8	i	-6	-0.3
CCOC(=O)c1c(-c2cccs2)csc1NC(=O)c1ccncc1	0.72	-1	-116	-6.2	/	3	-1.1
Cc1cc(C)n(-c2nc3c(c(=O)n(C)c(=O)n3C)n2Cc2cccc(Br)c2)n1	0.72	/	2.2	/	i	0	5.3
COc1ccc(OC)c(NC(=O)c2cc(-c3cc(C)cc(C)c3O)n[nH]2)c1	0.72	/	-2.8	0.4	i	-6	1.5
CC1CCCC(C)N1CC(O)COc1c(F)cc(Br)cc1F (stereo unspecified)	0.67	-4	0.3	-5.3	i	12	1.5
Cc1ccc(N2CC(C(=O)NCCc3ccc(S(N)(=O)=O)cc3)CC2=O)cc1 (stereo unspecified)	0.71	-125	4.0	2.4	i	-1	2.5
Cc1cc2n(n1)C(c1cn(-c3ccccc3)nc1C)Nc1ccccc1-2 (stereo unspecified)	0.71	-2	-146	2.8	/	3	3.8
CCN(CC)S(=O)(=O)c1cccc(C(=O)NCCCN2CCOCC2)c1	0.67	-5	3.9	0.0	/	-2	-1.9
COc1nc(C)nc2c1sc(=S)n2C	0.69	-20	2.2	2.9	/	0	-4.1
Cc1ccc(-n2c(SCC(=O)N3CCOCC3)nnc2-c2ccncc2)cc1C	0.68	-5	1.0	-4.3	i	-14	1.2
C=C(C)CCC(C)N1CCC(n2nccc2NC(=O)CCOc2ccccc2)CC1 (stereo unspecified)	0.67	-5	1.7	3.4	i	13	1.6
CC(C)c1onc(C(=O)Nc2sc3c(c2C#N)CCC3)c1[N+](=O)[O-]	0.67	47	9.0	4.3	i	0	1.7
O=C(NCCCn1ccnc1)/C(=C/c1ccc(F)cc1)NC(=O)c1ccccc1	0.66	3	-1.1	-4.8	i	-2	0.9
Cc1cc(NN)nc2ccc(Cl)cc12	0.65	-10	3.3	1.3	i	-19	4.2
CCOC(=O)N1CCN(C(=O)CN(c2ccccc2)S(C)(=O)=O)CC1	0.7	10	0.4	-1.7	i	2	-1.2
Cc1cccc(C)c1OCCCCN1CCCCC1	0.65	-2	4.7	-2.4	i	11	1.8
Cc1ccc(-c2ccc(/C=N/O)o2)cc1[N+](=O)[O-]	/	22	/	-3.7	i	6	2.0
COCCCNC(=O)CSc1ccsc1[N+](=O)[O-]	0.69	-12	8.9	-4.3	i	6	-2.5
CCCCN(C(=O)c1cc(CC)c(C)s1)c1c(N)n(CCC)c(=O)[nH]c1=O	0.72	-1	1.0	5.8	i	-5	-0.9
OCCC#Cc1ccc(CN2CCN(C3CCCCC3)C(CCO)C2)cc1 (stereo unspecified)	0.74	-3	4.8	-1.1	i	7	3.5
Cc1c(C)n(C(=O)CN2CCN(c3ccccn3)CC2)c2ccccc12	0.74	-4	1.4	-0.4	/	-2	1.2
Cc1[nH]n(-c2ccccc2)c(=O)c1/C=N/Nc1nncc(-c2ccccc2)n1	/	?	/	2.9	i	0	0.6
COc1ccc(OC(C)C(=O)N(C)Cc2nc(-c3cccc(C)c3)no2)cc1 (stereo unspecified)	0.71	0	0.6	2.5	+	3	1.6
COc1cc(C(=O)OCC(=O)NCc2ccccc2)cc(NC(=O)c2ccco2)c1OC	0.69	9	-39	3.8	/	4	0.0
